Screening data (PubChem)
2A StopGo = FMDV 2A StopGo reporter, luciferase signal | human cells with a luciferase reporter of 2A StopGo recoding; control for the full effect not named in the record | Potency, µM (titrated, usually from 57.9 µM), inactives show at the highest dose signal change, negative = less light | hit rate 1.2% among 410,000 | AID 1159524; active = well fitted falling curve with a large enough effect; inconclusive = small, poorly fitted or top-dose-only effect; inactive = no such curve, though single readings can be large or run the other way; tested in HEK293T cells; note: % is set by controls: 0 for no effect and ±100 for the full control effect; nearly all actives have a fitted effect of over 45% in size; luciferase light after 4 h
LASV entry inh = Lassa virus entry inhibition; Lassa virus pseudotype entry inhibition, cell reporter; control for the full effect not named in the record; hit rate 1.2% among 300,000; AID 540256; Potency, µM (titrated, usually from 37.9 µM), inactives show at the top dose activity change, negative = inhibition, most hits filed as inhibitors; active means well fitted inhibition curve with a large enough effect; inconclusive means small, poorly fitted or top-dose-only effect, or effect the other way; inactive means flat fitted curve, though single readings scatter; tested in HEK293 cells; note: % is set by controls: 0 for no effect and ±100 for the full control effect; nearly all actives have a fitted effect of over 50% in size; luciferase read-out
RE007 growth inh = less growth of the S. pombe RE007 Vpr strain; hit rate 0.21% among 360,000; S. pombe RE007 Vpr strain, BacTiter-Glo ATP luminescence, 24 h; control for the full effect not named in the record; AID 651644; Potency, µM (doses to about 92.2 µM), inactives show top-dose activity change, negative = less growth; active = well fitted falling curve with a large enough effect; inconclusive = small, poorly fitted or top-dose-only effect; inactive = no such curve, though single readings can be large or run the other way;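 note: % is set by controls: 0 for no effect and ±100 for the full control effect; nearly all actives have a fitted effect of over 50% in size; the assay follows cell death caused by Vpr and the record does not say whether a fall means rescue or toxicity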
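Fission yeast strain RE007, carrying one chromosomally integrated HIV-1 vpr copy, was seeded at OD 0.01 in PMG+AL medium with 23 nL pinned compound. After 24 h at 30 °C and 99% humidity, viability was read by BacTiter-Glo luminescence.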
Cruzain Triton = blocks cruzain activity in presence of Triton detergent; Potency, µM, for the others: max response, negative = inhibition, most hits filed as inhibitors; P25779; purified cruzain, Z-FR-AMC fluorescence, 0.01% Triton; hit rate 0.43% among 200,000;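 note: plate controls were neutral wells for no effect and buffer without enzyme for full effect; nearly all actives have a fitted effect of over 40% in size; top concentration of the series not given in the record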
Target sequence (P25779 123-467 limits assumed): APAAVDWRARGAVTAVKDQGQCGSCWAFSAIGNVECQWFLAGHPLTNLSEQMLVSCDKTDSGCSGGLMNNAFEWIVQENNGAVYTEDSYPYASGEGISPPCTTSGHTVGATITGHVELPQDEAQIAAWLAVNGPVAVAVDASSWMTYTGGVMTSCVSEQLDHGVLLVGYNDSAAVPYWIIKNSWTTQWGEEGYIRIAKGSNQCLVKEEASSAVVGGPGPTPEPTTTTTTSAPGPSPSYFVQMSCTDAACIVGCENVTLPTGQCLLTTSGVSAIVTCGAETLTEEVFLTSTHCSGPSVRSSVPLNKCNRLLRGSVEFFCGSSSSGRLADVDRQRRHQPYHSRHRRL
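Enzyme 1.5 nM, Z-FR-AMC 2 uM, NaOAc 100 mM pH 5.5, DTT 5 mM, Triton X-100 0.01%; 15 min RT compound preincubation; kinetic ex360/em450, 60 s delta.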
Marburg entry inh = blocks Marburg virus binding to or entry into cells; Marburg virus pseudotyped entry inhibition, cell reporter; control for the full effect not named in the record; about a third of the inactives were read at about 46 µM; Potency, µM (top dose mostly 37.8 µM), for inactives: top-dose activity change, negative = inhibition, usual class: inhibitors; hit rate 1.8% among 300,000; active = well fitted inhibition curve with a large enough effect; inconclusive = small, poorly fitted or top-dose-only effect, or effect the other way; inactive = flat fitted curve, though single readings scatter; tested in HEK293 cells; about a fifth of its hits are not listed in these tables; note: % is set by controls: 0 for no effect and ±100 for the full control effect; luciferase read-out
Cruzain noTriton = inhibitors of Trypanosoma cruzi cruzain without detergent | purified cruzain, Z-FR-AMC fluorescence, no detergent | Potency, µM, for inactives: max response, negative = inhibition, usual class: inhibitors | hit rate 2.3% among 200,000 | AID 1476;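 note: plate controls were enzyme without inhibitor for no effect and buffer without enzyme for full effect; nearly all actives have a fitted effect of over 40% in size; top concentration of the series not given in the record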
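Detergent-free condition (0.00005% Triton X-100) in acetate buffer pH 5.5 with DTT. 1.5 nM enzyme and compound were pre-mixed 15 min, then 2 uM Z-FR-AMC substrate added; reaction progress from fluorescence change between first and third reads (60 s).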
NS1 function inh = inhibitors of influenza NS1 protein function | S. cerevisiae slowed by influenza A NS1, growth recovery by OD600 | Potency, µM (top dose mostly 46.1 µM), for inactives: top-dose activity, positive = more growth | hit rate 0.4% among 270,000; active means well fitted rising curve with a large enough effect; inconclusive means small, poorly fitted or top-dose-only effect; inactive means no such curve, though single readings can be large or run the other way; note: nearly all actives have a fitted effect of over 50% in size
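Compounds were scored for reversing the slow growth caused by influenza A NS1 in S. cerevisiae, measured by optical density at 600 nm. Assay medium contained 2% galactose at pH 6.0; NS1-free yeast of the same strain were the positive control.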
SARS PLP yeast = blocks SARS-CoV papain-like protease in a yeast assay | S. cerevisiae expressing SARS-CoV PLpro, growth rescue; control for the full effect not named in the record | Potency, µM (titrated, usually from 32.9 µM), for inactives: at the top dose activity, positive = growth rescue | hit rate 0.19% among 330,000; active means well fitted rising curve with a large enough effect; inconclusive means small, poorly fitted or top-dose-only effect; inactive means no such curve, though single readings can be large or run the other way; note: 0% is about no effect; nearly all actives have a fitted effect of over 55% in size; growth read by luminescence after 48 h
The depositor's hits bear a star; ? = inconclusive; / = no result given; [ ] = dose if it differs, or a comment. Unless noted, calls come from the whole dose curve; as a rule, active = well fitted curve in the direction sought with a large enough effect; inconclusive = small, poorly fitted or top-dose-only effect, or another doubt; inactive = no such curve, though single readings can be large; an effect the other way counts as inactive or inconclusive. Potency is the fitted concentration of half-maximal effect. Rows were taken by chance; 4.8% or so of the library scored in one or more.

SMILES	2A StopGo	LASV entry inh	RE007 growth inh	Cruzain Triton	Marburg entry inh	Cruzain noTriton	NS1 function inh	SARS PLP yeast
CCOC(=O)c1ccccc1NC(=S)N1CCC(N2CCCCC2)CC1	5.1%	-1.0%	-10.3%	-1.7%	?	0.1%	-8.5%	19.5%
COc1cccc(OC)c1C(=O)NCCN1CCN(C(=O)c2c(OC)cccc2OC)CC1	-1.1%	1.6%	-0.3%	-1.8%	5.7%	-10.0%	-13.4%	2.9%
CC(=O)c1cccc(NC(=O)CSc2nnc3ccc(-c4ccc(C)cc4)nn23)c1	17.2%	14.5%[46.1 µM]	/	-2.4%	/	11.6%	/	/
CCn1cnc2c(oc3ccccc32)c1=O	11.6%	?	10.2%	/	6.1%[46.1 µM]	/	/	-0.1%
N#CCCN(C(=O)COC(=O)c1cccc(S(=O)(=O)N2CCCCCC2)c1)c1ccc(F)cc1	-23.9%	?	-1.1%	/	22.1%	/	/	/
COc1cc2c(cc1OC)CN(S(=O)(=O)c1ccc(Cl)nc1)CC2	-15.8%	5.9%	-3.2%	/	26.2%	/	/	-1.4%
CCN(CC)CCN(C(=O)Cn1nnc(-c2ccc(C)o2)n1)C(C(=O)NC1CCCC1)c1ccc(F)cc1 (stereo not given)	5.3%	-15.2%	-24.4%	/	?	/	0.9%	5.2%
CN(CCOc1ccc(Cl)cc1)C(=O)Cc1ccc(S(=O)(=O)N2CCOCC2)s1	?	-11.9%	-2.4%	/	-1.7%	/	/	-1.0%
CCOC(=O)C1CCCN(C(=O)C2CCCN(S(=O)(=O)c3ccc4c(c3)oc(=O)n4C)C2)C1 (stereo not given)	-21.8%	/	-5.1%	0.6%	5.3%	-4.6%	-1.6%	-0.8%
Cc1ccc(NS(=O)(=O)c2ccc3c(c2)NC(=O)CO3)c(C)c1	15.6%	/	-6.0%	/	/	/	10.2%	-7.9%
Clc1ccc(-c2noc(COc3ccccc3)n2)cc1	30.4%[activator]	?	-2.1%	-3.4%	1.0%	-17.2%	-4.7%	4.0%
CCC(C)[C@H](NC(=O)Nc1ccc(Oc2ccccc2)cc1)C(=O)O (stereo not given in full)	-0.8%	-5.6%	0.4%	-1.1%	-1.9%	4.0%	?	-6.2%
CCN(CC)CCN1C(=O)c2oc3ccc(F)cc3c(=O)c2C1c1ccncc1 (stereo not given)	-11.4%	/	-3.3%	/	/	/	1.7%	2.0%
CC1Cc2ccccc2N1C(=O)CN1C(=O)NC(C)(CCc2ccccc2)C1=O (stereo not given)	-23.9%	-2.2%	-15.7%	/	10.2%	/	12.0%	-1.4%
Cc1ccc(N2CC(C(=O)Nc3nnc(SCc4ccccn4)s3)CC2=O)cc1 (stereo not given)	-8.4%	-2.2%	-7.8%	/	3.2%	/	-5.0%	1.5%
COc1ccc(C2CC(=O)N(CC(=O)Nc3ccc(C)c(Cl)c3)c3ccccc3S2)cc1OC (stereo not given)	-7.7%	/	/	-4.9%	?	4.5%	/	/
COc1ccc(CCNC(=O)C2C3CCC(C3)C2C(=O)O)cc1OC (stereo not given)	-0.3%	14.9%	5.0%	/	10.7%	/	-2.5%	6.4%
O=C(Nc1cc(S(=O)(=O)N2CCOCC2)ccc1N1CCCC1)c1cnccn1	0.0%	-11.6%	-11.7%	-4.7%	9.5%	-9.0%	-0.1%	-8.1%
COc1cc(C)c(NC(=O)C(=S)N2CCCC2)cc1C	-3.2%	0.3%	9.5%	/	29.4%[46.1 µM]	/	-0.4%	0.6%
Cc1ccc(NC(=O)CN2C(=S)NC(C)(C)CC2C)cc1Cl (stereo not given)	?	-24.1%	-21.4%	/	?	/	/	22.0%

Record cards, as listed above. Order of values: 2A StopGo, LASV entry inh, RE007 growth inh, Cruzain Triton, Marburg entry inh, Cruzain noTriton, NS1 function inh, SARS PLP yeast
`CCn1cnc2c(oc3ccccc32)c1=O` is entered as 11.6%, ?, 10.2%, /, 6.1%[46.1 µM], /, /, -0.1%
`CCN(CC)CCN1C(=O)c2oc3ccc(F)cc3c(=O)c2C1c1ccncc1` (stereo not given) is entered as -11.4%, /, -3.3%, /, /, /, 1.7%, 2.0%
`Cc1ccc(NC(=O)CN2C(=S)NC(C)(C)CC2C)cc1Cl` (stereo not given) is entered as ?, -24.1%, -21.4%, /, ?, /, /, 22.0%

(list continues)
SMILES	2A StopGo	LASV entry inh	RE007 growth inh	Cruzain Triton	Marburg entry inh	Cruzain noTriton	NS1 function inh	SARS PLP yeast
CCCCNC(=O)CCn1c(=O)c2ccccc2n(Cc2ccc(F)cc2)c1=O	-0.6%	17.7%	0.0%	-4.5%	6.3%	0.3%	-4.6%	-17.0%
COc1ccc(CCNC(=O)C(=O)NCC2OCCN2S(=O)(=O)c2ccc(F)cc2)cc1 (stereo not given)	-7.2%	/	-8.2%	/	/	/	1.6%	-5.6%
O=C(NNC(=O)C12CC3CC(CC(C3)C1)C2)c1ccccc1F	37.6%[activator]	/	-11.1%	/	-0.3%[46.1 µM]	/	-12.0%	1.4%
CN(C)C1=NC[C@H](Cc2ccccc2)N1CC1CCC(C(C)(C)C)CC1 (stereo not given in full)	-28.2%	/	-16.0%	/	/	/	9.7%	-7.3%
CCOCCn1c(=O)c2c(nc3n2CC(C)CN3Cc2ccccc2)n(C)c1=O (stereo not given)	-16.7%	7.2%[46.1 µM]	22.9%	/	11.6%[46.1 µM]	/	7.3%	-3.6%
Cc1cc(C(=O)N/N=C/c2cc(Br)cc([N+](=O)[O-])c2O)c2ccccc2n1	-23.4%	-0.1%	8.0%	-13.1%	2.9%	?	-39.9%	1.78µM*
N#Cc1c(N)n(-c2ccc(N)cc2)c2nc3ccccc3nc12	7.6%	11.5%	-11.5%	/	5.6%[46.1 µM]	/	0.3%	0.2%
O=C(Nc1ccc2oc(-c3ccccc3)nc2c1)c1ccncc1	?	-13.4%	-18.3%	1.5%	?	?	-28.3%	5.5%
Cc1ccc(S(=O)(=O)NCCCNS(C)(=O)=O)cc1	14.1%	11.1%	-6.7%	4.5%	9.3%	-1.2%	3.6%	-2.5%
CCc1ccc(NC(=O)CCCc2nnc3n(CC(C)C)c(=O)c4sccc4n23)cc1	-8.4%	-1.7%[46.1 µM]	/	-0.1%	/	6.1%	/	/
COc1ccccc1C1CC(=O)Oc2cc(C)c(Br)c(C)c21 (stereo not given)	0.0%	/	-11.1%	0.9%	/	-6.0%	/	17.6%
Cc1nnc(SCc2nc(-c3ccc(Cl)cc3)no2)n1-c1ccc(F)cc1	0.0%	0.5%[46.1 µM]	/	-10.1%	?	?	/	/
COc1ccc(CNC(=O)c2c(C)cc(=O)oc2C)cc1	8.6%	/	24.3%	/	13.2%[46.1 µM]	/	/	0.0%
Cc1cc([N+](=O)[O-])nn1Cc1ccc(C(=O)N/N=C/c2ccc(N(C)C)cc2)cc1	-10.0%	-14.5%	-0.9%	/	?	/	0.5%	1.1%
Cc1cccc(N2CCN(C(=O)c3ccc4[nH]c(C)c(C)c4c3)CC2)c1C	-18.2%	?	0.7%	/	?	/	/	-7.7%
COc1ccc(C(=O)N/C(=C/c2ccc(Cl)cc2)C(=O)NCc2ccncc2)cc1	3.6%	?	19.7%	/	?	/	-0.8%	-3.7%
CC(C)(C)NC(=S)Nc1ccc(Nc2ccccc2)cc1	?	-21.2%	-17.8%	-7.9%	13.4%	6.8%	-13.5%	-25.8%
CNC(=O)NC(=O)C(C)OC(=O)c1c(C)noc1C (stereo not given)	3.1%	13.2%	-3.0%	2.3%	3.3%	10.5%	-0.8%	0.0%
CCOc1ccccc1OC(C)C(=O)Nc1ccc(S(=O)(=O)N2CCCC2)cc1 (stereo not given)	-6.7%	-1.2%	2.9%	/	?	/	-18.7%	?
Nc1nc(Nc2ccccc2)nc(N2CCCC2)c1[N+](=O)[O-]	51.1%[activator]	/	-3.3%	/	/	/	-35.3%	-1.0%
Cc1ccc(S(=O)(=O)N2CCC(=O)N(CCOCc3cccc(C)c3)CC2)cc1	-22.3%	-19.3%	-1.9%	-2.7%	-6.5%	?	-15.6%	2.2%
CCOc1cc2c(cc1/C=C/C(=O)O)OC(C)C2 (stereo not given)	5.9%	/	8.4%	/	/	/	-4.1%	0.3%
CCC(=O)Nc1cccc(NC(=S)NC(=O)Cc2ccccc2)c1	0.0%	-21.1%	22.9%	-9.1%	-1.8%	3.7%	-2.5%	4.3%
COc1ccc(-c2n[nH]c(=S)n2Cc2ccco2)cc1	-13.3%	1.3%	4.8%	-4.6%	-11.0%	-10.3%	-3.8%	2.4%
Cc1ccccc1N1CCN(S(=O)(=O)c2cccs2)CC1	-12.6%	?	-5.8%	/	?	/	-25.2%	1.3%
Cc1ccc(NS(=O)(=O)c2cccc(C(=O)N3CCN(c4ncccn4)CC3)c2)cc1	-40.1%	-10.5%	1.0%	/	-23.3%	/	/	0.9%
N/C(=N\OC(=O)c1ccccc1)C(C(=O)NOC(=O)c1ccccc1)C1CCCCC1 (stereo not given)	-6.8%	?	?	/	?	/	/	/
CC1(C)CC(=O)C=C(NCCCNC2CCCCC2)C1	1.0%	-10.0%	-7.8%	0.0%	-4.6%	12.6%	-5.4%	15.4%
N#Cc1c(-c2ccncc2)c2c([nH]c1=S)CCCC2	-20.5%	10.9%	11.9%	-4.0%	?	-5.1%	13.4%	6.6%
COc1cc(/C=C/c2nc3ccccc3c(=O)n2-c2cccc(O)c2)ccc1O	?	1.26µM*	1.6%	/	?	/	1.9%	3.8%
CCN1CCN(C(c2ccccc2Cl)c2sc3nc(-c4ccco4)nn3c2O)CC1 (stereo not given)	3.9%	5.6%[46.1 µM]	/	-2.5%	/	-5.7%	/	/
Cc1ccc(C(C)C)c(OCc2nc(-c3nonc3N)no2)c1	-4.6%	/	2.7%	-11.9%	/	-12.0%	-15.3%	-11.8%
CCC1CCCCN1Cc1ccc(N)cc1 (stereo not given)	19.2%	/	1.0%	/	/	/	3.8%	0.0%
COc1cc(C2CC(=O)Oc3c2c(=O)[nH]c2ccccc32)cc(OC)c1OC (stereo not given)	-25.4%	13.8%[46.1 µM]	/	-1.9%	1.0%[46.1 µM]	-1.6%	/	/
